RecA splice inh: blocks M. tuberculosis RecA intein splicing. cell-free RecA intein splicing, fluorescence. inhibition, %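 (about 9 µM by stock and volumes)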. 0.75% of 290,000 active. AID 2221; in the data active means inhibition above about 30%; inconclusive means no clear call, values can overlap the other calls;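 further: 0% = vehicle wells and 100% = reference inhibitor control wells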
Target sequence (P9WHJ3 whole entry, looked up, canonical isoform): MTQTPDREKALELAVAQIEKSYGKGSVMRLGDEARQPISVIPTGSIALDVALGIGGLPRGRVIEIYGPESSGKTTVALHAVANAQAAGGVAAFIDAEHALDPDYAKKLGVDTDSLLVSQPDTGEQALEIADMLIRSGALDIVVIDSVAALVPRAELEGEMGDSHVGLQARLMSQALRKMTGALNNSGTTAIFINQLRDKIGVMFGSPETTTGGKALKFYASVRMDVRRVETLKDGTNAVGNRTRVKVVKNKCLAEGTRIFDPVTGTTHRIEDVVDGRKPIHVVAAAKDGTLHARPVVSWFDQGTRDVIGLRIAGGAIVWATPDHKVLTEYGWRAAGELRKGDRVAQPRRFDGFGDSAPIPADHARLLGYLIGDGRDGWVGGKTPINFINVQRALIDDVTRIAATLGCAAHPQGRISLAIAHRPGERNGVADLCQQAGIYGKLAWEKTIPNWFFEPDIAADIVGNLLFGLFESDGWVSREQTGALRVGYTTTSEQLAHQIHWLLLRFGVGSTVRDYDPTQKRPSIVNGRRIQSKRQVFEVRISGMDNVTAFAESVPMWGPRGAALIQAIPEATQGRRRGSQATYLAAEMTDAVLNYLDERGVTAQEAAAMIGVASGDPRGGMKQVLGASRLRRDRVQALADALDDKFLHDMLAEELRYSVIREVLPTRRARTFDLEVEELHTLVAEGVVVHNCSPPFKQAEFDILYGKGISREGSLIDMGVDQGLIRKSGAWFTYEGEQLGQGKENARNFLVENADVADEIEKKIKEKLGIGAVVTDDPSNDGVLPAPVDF
YopH PTP inh: inhibitors of Yersinia enterocolitica YopH tyrosine phosphatase; fluorescence Ex485/Em525; inhibition, %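 (about 10 µM by stock and volumes)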; 0.16% of 140,000 active; AID 898;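 active means inhibition of 50% or more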;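 further: controls were vehicle for no effect and minimum signal wells for full effect; inactives centre near -20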
Mtb betalactam: beta-lactam sensitization of Mtb H37Rv. M. tuberculosis H37Rv growth with meropenem, percent inhibition; hits of this screen are not shown here. inhibition, % at 25 µM. 0.27% of 330,000 active;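 active means about 74% or more and at least 40 points above the plate without the antibiotic, then above 30% in a dose series; inconclusive means first-round hits that could not be retested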;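 further: growth measured after seven days incubation then overnight dye step; 0% = bacteria only wells and 100% = bacteria with antibiotic; twin plates without the antibiotic show which effects depend on it; some results filed as inactive read as strong as hits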
Mtb growth: M. tuberculosis H37Rv growth inhibitors, H37Rv strain (AID 1626) | M. tuberculosis H37Rv growth inhibition; higher % means a stronger effect | inhibition, % at 10 µM; hits with a dose series show IC50 in µM | 0.95% of 220,000 active;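 active means confirmed in a dose series; inconclusive means inhibition above 80% but not taken into the dose series; inactive means below 80% or under 30% at every dose of the series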;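 further: bacteria incubated seven days before Alamar blue readout; 0% = bacteria only wells and 100% = bacteria with antibiotic wells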
Arbovirus anti: blocks arbovirus infection; arbovirus infection cell-based antiviral screen; inhibition, % at 10 µM; 0.37% of 200,000 active; AID 1251;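 active means inhibition from about 30%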;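 further: bluetongue infection of BSR cells; cell survival read as ATP light after 72 h; 0% = infected wells without compound and 100% = uninfected wells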
Arbovirus anti repeat: second read-out of Arbovirus anti, no call of its own (marks repeat the call); inhibition, %; measured here: 10K subset replicate screen; many hits read low in the repeat;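 first of two repeat runs on a subset; 0% = infected and 100% = uninfected wells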
* marks the source's active call; other numbers are inactive results; ? = inconclusive; · = not tested or not shown. A portion of the library; rates above refer to the full screens.

SMILES	RecA splice inh	YopH PTP inh	Mtb betalactam	Mtb growth	Arbovirus anti	others
N/C(=N\OC(=O)c1cccs1)c1ccc(Cl)cc1	-2.4	·	1	9%	·
COC(=O)c1ccc2c(=O)n3c(nc2c1)SCC(c1ccccc1)=N3	-2.1	-17	-1	4%	-6	Arbovirus anti repeat=-4
O=C(NNc1c2ccccc2nc2ccccc12)c1ccccc1Cl	1.2	·	-7	·	·
Cn1cc(CC(=O)NCCN2CCOCC2)c2ccccc21	-2.2	·	-7	-9%	2
Cc1ccc(NC(=O)CSCC(=O)N2CCN(Cc3ccc4c(c3)OCO4)CC2)cc1	0.3	·	-13	·	·
N#CSCC(=O)c1cccc2ccccc12	·	-25	9	5%	-9
Nc1nc(SCc2ccc(Cl)cc2Cl)n[nH]1	6.2	-19	46	6%	9
O=S(=O)(c1cccc(COc2c(Cl)cccc2Cl)c1)N1CCOCC1	5.3	·	-4	·	·
C/C=C/C(=O)Nc1cccc(C2=NOC3(C2)C[C@@H](C(N)=O)N(C(=O)c2cc([N+](=O)[O-])cc([N+](=O)[O-])c2C)C3)c1 (stereo not given in full)	0.7	·	-2	4%	·
O=C(Nc1ccc(Oc2ccc3c(c2)C(=O)N(c2ccc(O)cc2)C3=O)cc1)c1cccs1	0.1	-15	8	-4%	-10
CCOc1ncccc1C(=O)OCC(=O)c1ccccc1	0.6	·	1	-4%	1
O=C1C(=O)c2ccccc2C(O)=C1c1cccc([N+](=O)[O-])c1	3.6	·	-9	-11%	·
Cc1c(CCC(=O)NCCCCCC(=O)O)c(=O)oc2cc3occ(-c4ccccc4)c3cc12	1.2	·	-4	·	·
O=C(Nc1cccnc1Cl)c1ccc(S(=O)(=O)N2CCCCCC2)cc1	1.1	4	-3	·	4
O=C(COC(=O)c1ncc(Cl)c(Cl)c1Cl)NC(=O)c1ccccc1	-0.9	·	-10	·	·
COC(=O)[C@H](CC(C)C)NC(=O)N1CCC(C)CC1	-0.4	·	3	-4%	·
CN(C)CCNC(=O)C1(O)c2cc(Br)ccc2NC(=O)N1c1ccc(Cl)cc1 (stereo not given)	-0.2	·	?	·	·
Cc1ccc(NC(=O)c2cc(NC(=O)c3ccco3)ccc2N2CCOCC2)cc1Cl	-0.4	1	-1	1%	-14
NC(=O)c1ccc(=O)n(Cc2ccc(Cl)cc2Cl)c1	0.8	·	6	·	·
CC(C)c1c(C(=O)N/N=C/c2ccncc2)nnn1-c1nonc1N	-1.3	·	10	·	·
COc1ccc(NC(=O)CN2C(=O)NC3(CCCC3)C2=O)cc1OC	-2.7	·	-5	·	·
COc1cccc(C2(O)C(=O)Nc3ccccc32)c1 (stereo not given)	0.2	·	-2	·	·
O=C(COc1ccc2c(c1)CCC2)N1CCN(c2ccccc2F)CC1	5.6	-16	-6	13%	17
Cn1nc(C(F)(F)F)c(-c2ccc(Br)cc2)c1NC(=O)Nc1ccc(F)cc1F	13	·	7	11%	·
Cc1cc(=O)oc2c(C)c(OCC(=O)N3CC[C@@]4(O)CCCC[C@H]4C3)ccc12	-4.7	·	-5	·	·

A draw from above in order of molar mass, low to high:
SMILES	RecA splice inh	YopH PTP inh	Mtb betalactam	Mtb growth	Arbovirus anti	others
COc1cccc(C2(O)C(=O)Nc3ccccc32)c1 (stereo not given)	0.2	·	-2	·	·
Nc1nc(SCc2ccc(Cl)cc2Cl)n[nH]1	6.2	-19	46	6%	9
CC(C)c1c(C(=O)N/N=C/c2ccncc2)nnn1-c1nonc1N	-1.3	·	10	·	·
O=C(COc1ccc2c(c1)CCC2)N1CCN(c2ccccc2F)CC1	5.6	-16	-6	13%	17

Remaining list, next part
SMILES	RecA splice inh	YopH PTP inh	Mtb betalactam	Mtb growth	Arbovirus anti	others
CC(C)(C)C(=O)N(Cc1ccc(Cl)cc1)c1cnccn1	2.5	·	-4	·	·
COC(=O)c1cc2c(ccn2-c2ccc(F)cc2)n1CC(=O)C(C)(C)C	·	·	1	4%	4
Cc1ccc(-c2nn(-c3ccc(F)cc3)cc2C(=O)NC2CCC(O)CC2)cc1 (stereo not given)	-2.2	·	-10	·	·
CC(=O)c1c(C)[nH]c(C(=O)N2CCN(c3ncccn3)CC2)c1C	-5.5	0	-6	-3%	-5	Arbovirus anti repeat=-3
CCCN(CCC)c1nc2ccccc2n2c(C)nnc12	6.1	1	0	-7%	-13
CCN1CCN(C(C)C(=O)NC2CCCCC2)CC1 (stereo not given)	-4.7	·	0	-4%	·
O=C(c1ccc(Cl)cc1[N+](=O)[O-])N1CCc2ccccc2C1	1.0	·	-7	14%	0
Cc1c(NC(=S)NC(=O)c2cccc(Cl)c2)c(=O)n(-c2ccccc2)n1C	1.2	·	-26	·	·
N#CCCN(C(=O)Cn1nc(C(=O)O)c2ccccc2c1=O)c1ccccc1	1.3	·	1	·	·
O=C(Oc1cccc(C(=O)N2CCOCC2)c1)c1ccc(Br)cc1	3.5	-39	-1	0%	1
CCc1ccc(CNC(=O)c2cc3c(C)nc4ccccc4c3o2)cc1	10	-41	8	37%	-28
COc1cc(NC(=O)C2CC2C)c(C(=O)O)cc1OC (stereo not given)	-3.7	-39	9	10%	-1
Cc1onc(-c2c(Cl)cccc2Cl)c1COC(=O)c1ccc(Cl)cc1	7.0	·	-9	-6%	·
Cc1ccc2nc(=O)c(NNc3ccccc3)cnc2c1	2.5	-12	98	?	-18
CN(C)CCN(C(=O)C1CCN(S(=O)(=O)c2cccs2)CC1)c1nc2ccc(F)cc2s1	1.0	·	-14	·	·
CCCCN(c1ccccc1)c1ncnc(N)c1[N+](=O)[O-]	0.1	-30	5	-7%	15
O=C(c1ccco1)N1CCN(C(=O)c2cnn(-c3cccc(F)c3)c2C2CCNCC2)CC1	0.3	·	0	·	·
COc1ccc(S(=O)(=O)NC2(C(F)(F)F)N=C(c3ccccc3)NC2=O)cc1 (stereo not given)	0.5	-26	-5	-2%	4
CCN(C(=O)Cn1c(=O)n(-c2cc(OC)c(OC)c(OC)c2)c(=O)c2ccccc21)c1cccc(C)c1	-1.6	·	-5	4%	1
COC(=O)c1sc(NC(=O)C(C)C)c(C(=O)OC)c1C	-0.3	-32	-2	6%	-6
CS(=O)(=O)Nc1cccc(C2=NN(C(=O)CCC(=O)O)C(c3cccs3)C2)c1 (stereo not given)	3.2	·	-3	·	·
COc1ccc(OC)c(NC(=O)CCCN2C(=O)C3C4C=CC(C4)C3C2=O)c1 (stereo not given)	3.8	-46	-6	-2%	-1
O=C(O)CC12CC3CC(C1)CC(n1ncc(NCC4CCCO4)c(Cl)c1=O)(C3)C2 (stereo not given)	-0.9	·	-8	-1%	·
CC(C)[C@H](NC(=O)Nc1ccc(Oc2ccccc2)cc1)C(=O)O	62*	-40	-7	-7%	-3
O=C(c1ccccc1)N1CCN(Cc2ccccc2C(F)(F)F)CC1	2.9	·	19	1%	-4
SMILES	RecA splice inh	YopH PTP inh	Mtb betalactam	Mtb growth	Arbovirus anti	others
CC(=O)N(C)c1ccc(N2CCOCC2)c2c1C(=O)c1ccccc1C2=O	1.4	·	2	·	·
CC1CCCCN1C(=S)NCCc1ccccc1 (stereo not given)	-0.5	1	-4	9%	5
C/C(=N/NC(=O)CCc1ccccc1)c1ccco1	-1.8	·	8	1%	3
CC(=O)N1CCc2cc(Br)cc(S(=O)(=O)N3CCC(C(=O)O)CC3)c21	2.9	·	?	·	·
O=C(NCc1cccc2[nH]ccc12)C1CCC(=O)N(CCc2ccc(Cl)cc2)C1 (stereo not given)	0.0	·	-5	·	·
O=C(CN(Cc1ccc(F)cc1)C(=O)CCC(=O)Nc1nccs1)NCC1CCCO1 (stereo not given)	-3.3	·	-5	·	·
O=C(Nc1nnc(CCc2ccccc2)s1)c1ccccc1F	-1.6	·	1	·	·
O=C(CN1CCN(c2ccccc2)CC1)Nc1ccc(OCc2ccccc2)cc1	8.1	3	98	-8%	-12
COc1ccccc1OCCNC(=O)c1ccccc1C	-0.4	-2	-5	6%	6
O=C(CC1CCCC1)NCCS(=O)(=O)N1CCN(c2ccccc2F)CC1	-3.2	·	-10	·	·
COCCNc1nc2c(c(=O)n(Cc3ccc(OC)cc3)c(=O)n2C)n1C	1.4	-51	-8	-5%	3
COCCCN1C(=O)C(=O)/C(=C(/O)c2ccc3c(c2)CC(C)O3)C1c1cccnc1 (stereo not given)	-1.3	-32	-12	-7%	0
O=C(NC(=S)Nc1ccccc1N1CCOCC1)c1ccc([N+](=O)[O-])cc1	-0.2	-30	0	-5%	2
Cc1ccccc1NC(=S)C1=C(O)c2sccc2N(C)S1(=O)=O	0.4	-24	0	-11%	9
CC(C)C(C)(C#N)NC(=O)CSc1nnc(-c2ccncc2)n1Cc1ccccc1 (stereo not given)	·	-5	-3	2%	6
COc1ccc(CC(=O)Nc2ccc(-c3noc(COc4ccccc4C)n3)cc2)cc1	2.8	-17	0	3%	5
O=C(CCc1nc(-c2ccccc2Cl)no1)NC1CCCC1	-3.8	·	6	·	·
COCCNCC#CCOc1ccc(OC)cc1	-1.2	16	-13	0%	4
CCCCOc1ccc(-c2csc(N)n2)cc1[N+](=O)[O-]	4.2	-8	89	9%	-6
O=C(Nc1nc(-c2cccc(Br)c2)cs1)Oc1ccccc1	·	-22	89	66%	11
O=C1CCC([N+](=O)[O-])C(c2ccccc2C(F)(F)F)N1 (stereo not given)	-0.2	·	4	·	·
CCc1cccc(NC(=O)c2ccc(Br)o2)c1	3.3	-8	44	·	3
CCCCn1c(N)c(N(CC)C(=O)c2ccc(C#N)cc2)c(=O)[nH]c1=O	0.3	·	-4	·	·
CC(=O)Nc1ccc(NC(=O)C(C)OC(=O)CCC(=O)c2ccc(F)cc2)cc1 (stereo not given)	0.1	-7	7	-9%	-2
CCc1ccc(NC(=O)CSCc2ccc(C(=O)O)cc2)cc1	-1.2	·	39	35%	1

Quoted at random: 3 entries already listed
SMILES	RecA splice inh	YopH PTP inh	Mtb betalactam	Mtb growth	Arbovirus anti	others
CCCCOc1ccc(-c2csc(N)n2)cc1[N+](=O)[O-]	4.2	-8	89	9%	-6
CC(=O)N(C)c1ccc(N2CCOCC2)c2c1C(=O)c1ccccc1C2=O	1.4	·	2	·	·
COCCNc1nc2c(c(=O)n(Cc3ccc(OC)cc3)c(=O)n2C)n1C	1.4	-51	-8	-5%	3

(further entries)
SMILES	RecA splice inh	YopH PTP inh	Mtb betalactam	Mtb growth	Arbovirus anti	others
O=C(NC1CCCCC1)c1ccc2c(c1)OCO2	0.0	·	2	·	·
CCN1C(=O)[C@H]2[C@@H](c3ccc(Cl)cc3)N3C(=O)CN(CC4CC4)C(=O)[C@@]3(C)[C@H]2C1=O	-1.0	·	-9	·	·
CNCCOc1ccccc1C(C)(C)C	-1.6	-13	4	-6%	18
Cc1ccc(OCC(=O)NNC(=O)[C@@H]2CCCC[C@@H]2C(=O)O)c(Br)c1	-1.5	·	-1	·	·
Cc1ccc(S(=O)(=O)N2CCC(C(=O)Nc3cc(C(F)(F)F)ccc3N3CCOCC3)CC2)cc1C	-2.4	·	-5	·	·
CCN1CCSc2ccc(C(=O)NCc3ccc(OC(C)C)cc3)cc21	0.1	·	-4	·	·
CN(CCc1ccccn1)C(=O)CCC1CCCN(Cc2ccccc2OC(F)F)C1 (stereo not given)	-0.7	·	-4	-2%	3
Cc1nonc1CN(C)C(=O)CC1C(=O)NCCN1Cc1ccccc1C(F)(F)F (stereo not given)	0.7	·	-7	2%	0
O=C(NCC1CCCO1)C1CC(=O)N(c2ccccc2)C1 (stereo not given)	0.7	·	4	·	·
O=C(CSc1n[nH]c(=O)n1Cc1ccco1)Nc1ccccc1	-0.1	·	-7	1%	·
O=C(CSc1nnc(-c2cccnc2)s1)Nc1cccc(C(=O)O)c1	-0.7	-16	62	0%	-7
COc1ccc(C2(CNC(=O)C(c3ccccc3)c3ccccc3)CCOCC2)cc1OC	3.5	-19	7	-5%	0
Cc1cccc(NC(=O)c2cc(Cl)nc3ccccc23)c1	1.3	6	2	·	-3
Cc1nc2ccccc2c(=O)n1/N=C/c1ccccc1OC(F)F	6.0	·	-3	·	·
COc1ccccc1NC(=O)C1=C(C)Nc2nc(-c3cccs3)nn2C1c1cccc(O)c1 (stereo not given)	2.8	-5	84	·	-24
C=C(C)C(=O)N1CC2(CC(c3cccc(NC(=O)CC(c4ccccc4)c4ccccc4)c3)=NO2)C[C@H]1C(N)=O (stereo not given in full)	-9.1	·	17	13%	·
CCC(CC)NC(=O)c1ccc2c(c1)OCCO2	-6.7	-41	3	-2%	-4
O=C(Nc1ccc(Br)cc1F)c1ccc2c(c1)N(Cc1ccccc1)C(=O)CS2=O (stereo not given)	3.0	-30	-1	0%	-10	Arbovirus anti repeat=-2
CCC(C)c1ccc(C(C)NC(=S)NCc2ccc(F)cc2)cc1 (stereo not given)	-0.3	·	-2	·	·
CCNC(=O)C1CC(=O)OC12CCCCC2 (stereo not given)	-9.1	-71	-2	-5%	14
CN1CCN(S(=O)(=O)c2cccc(C(=O)N(Cc3ccccc3)c3ccccc3)c2)CC1	-0.3	·	-5	·	·
